Assay outcomes as filed in PubChem BioAssay.
eIF4H FP inh = human eIF4H binding inhibitors, primary screen, translation initiation inhibitor project, biochemical, uHTS, fluorescence polarization. eIF4H fluorescence polarization binding assay. 290,000 tested, 0.94% active. inhibition, % at 35 µM. AID 2012, 2009. Eukaryotic translation initiation factor 4H (Homo sapiens), Q15056;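 active means 50% or more with normal probe brightness, or confirmed in later tests; inconclusive means above 50% with abnormal brightness, or retests that disagree; inactive means below 50% or failed in later tests; about a fifth of its hits are not listed in these tables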;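 further: calls also rest on retests at 20 µM and on dose response follow-up; 0% = protein and probe with vehicle and 100% = probe without protein; strong numbers were not always called active; many hits fall short of the cut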
CSC inhib = cancer stem cell viability inhibitors, primary screen, luminescence | cancer stem cell-like cells viability | inhibition, % at 7.5 µM | 300,000 tested, 1.1% active | AID 2717, 2010;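 active means mean at 75% or more and at least half the replicates too; inconclusive means mean and replicates disagree; tested in HMLE shEcad cells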;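 further: 0% = median of negative and 100% = median of positive control wells; the first replicate is given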
HIV Env fusion = inhibitors of HIV-1 Env-driven cell-cell fusion, primary screen, HeLa-JRFL effector, CEM21 target cells, luciferase; inhibition, % at 12.3 µM; 360,000 tested, 1.1% active;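 active means mean replicate inhibition score of at least 50 and every replicate individually at or above 50; inconclusive means only one of the two criteria met; inactive means mean below 50 and not all replicates reaching 50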;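 further: 0% = plate neutral controls and 100% = maraviroc near 300 nM; one replicate is shown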
Rce1 inh = yeast Rce1p protease inhibitors, primary screen, biochemical, fluorescence, cell-free homogeneous; yeast membranes, quenched prenylated peptide cleavage fluorescence; calls only; 290,000 tested, 0.27% active;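 active means fall in fluorescence gain of 50% or more versus controls, with final raw signal at or below 3038400; inconclusive means same 50% fall but final raw signal above 3038400; inactive means fall in fluorescence gain under 50%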;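 further: plate controls were neutral control wells for no effect and wells lacking membranes for full effect; tested at 10 µM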
Target sequence (Q03530 whole entry, looked up): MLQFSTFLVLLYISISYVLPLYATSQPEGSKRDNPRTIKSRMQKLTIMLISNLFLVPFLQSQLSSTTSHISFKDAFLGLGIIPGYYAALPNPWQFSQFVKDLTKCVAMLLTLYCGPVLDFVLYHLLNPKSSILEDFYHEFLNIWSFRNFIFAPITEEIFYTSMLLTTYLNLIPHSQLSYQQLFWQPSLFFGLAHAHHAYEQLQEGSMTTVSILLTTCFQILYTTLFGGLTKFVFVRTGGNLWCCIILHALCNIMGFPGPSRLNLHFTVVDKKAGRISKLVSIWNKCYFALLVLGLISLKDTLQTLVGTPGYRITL
PABP polyA inh = PABP poly(A) RNA binding inhibitors, primary screen, biochemical, fluorescence polarization, uHTS; Polyadenylate-binding protein 1 (Homo sapiens), P11940; inhibition, % at 35 µM; 290,000 tested, 1% active;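 active means 50% or more with normal probe brightness, or confirmed in later tests; inconclusive means above 50% with abnormal brightness, or retests that disagree; inactive means below 50% or failed in later tests; about a fifth of its hits are not listed in these tables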;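 further: calls also rest on retests at 20 µM and on dose response follow-up; controls were probe without protein and protein plus probe with vehicle; some compounds called inactive have numbers as strong as hits; many hits fall short of the cut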
Target sequence (P11940 whole entry, looked up): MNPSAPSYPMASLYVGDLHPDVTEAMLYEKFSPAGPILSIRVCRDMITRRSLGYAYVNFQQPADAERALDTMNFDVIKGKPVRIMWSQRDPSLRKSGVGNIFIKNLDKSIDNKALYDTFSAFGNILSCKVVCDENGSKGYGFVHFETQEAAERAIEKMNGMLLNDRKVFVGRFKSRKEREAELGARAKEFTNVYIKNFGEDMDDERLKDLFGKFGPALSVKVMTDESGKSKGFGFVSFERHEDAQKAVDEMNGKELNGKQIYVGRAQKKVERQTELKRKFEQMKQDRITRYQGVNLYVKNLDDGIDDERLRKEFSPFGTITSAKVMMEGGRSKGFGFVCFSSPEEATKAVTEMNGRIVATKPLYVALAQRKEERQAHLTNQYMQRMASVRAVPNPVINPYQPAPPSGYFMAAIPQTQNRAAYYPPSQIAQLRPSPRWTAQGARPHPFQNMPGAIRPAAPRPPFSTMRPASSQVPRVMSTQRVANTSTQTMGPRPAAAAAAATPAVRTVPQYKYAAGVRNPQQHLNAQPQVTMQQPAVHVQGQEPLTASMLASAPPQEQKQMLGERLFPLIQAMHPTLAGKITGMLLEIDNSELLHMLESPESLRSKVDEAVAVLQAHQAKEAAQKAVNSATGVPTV
MT1-MMP act inh = blockers of MT1-MMP proenzyme processing, primary screen, HT1080 RFP-PRO-GFP cells, GFP/RFP fluorescence. Matrix metalloproteinase-14 (Homo sapiens), P50281. GFP/RFP ratio fluorescence, overnight; percent of plate control window, DMSO zero. GFP/RFP ratio change, % at 20 µM. 360,000 tested, 0.061% active. AID 651647, 2012;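 active means GFP/RFP ratio change of at least 30% with cell ATP level not reduced by more than half and red fluorescence within 50% of control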; further: strong numbers were not always called active
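system = RFP-PRO-GFP reporter HT1080 cells | dosing = 20 µM single dose, 1% DMSO | timing = overnight cell settling, then overnight compound exposure, 37 °C, 5% CO2 | read-out basis = GFP/RFP fluorescence ratio | controls = DMSO and RFP-L50D-GFP cell wells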
UUG fidelity = modulators of yeast start codon fidelity, primary screen, whole organism, S. cerevisiae, single point, plate reader; 350,000 tested, 0.13% active; S. cerevisiae UUG-firefly luciferase reporter, luminescence/redox ratio; AID 602363, 2012; activity score, % at 18.7 µM;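 active means replicate mean at a twofold rise or more, about +100% in these data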;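 further: firefly luciferase made from a UUG start codon reports start codon fidelity; reporter light over untreated wells divided by growth signal over untreated wells; some hits fall short of that in this replicate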
eIF4H FP inh retest = also measured in eIF4H FP inh; calls as there; inhibition, %; compound at 20 µM; confirmation average;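 mean of two retest wells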
PABP polyA inh retest = second read-out of PABP polyA inh, no call of its own (marks repeat the call); inhibition, %; compound at 20 µM; confirmation repeats;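 mean of two retest wells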
MT1-MMP act inh RFP = recorded beside MT1-MMP act inh, whose call it bears; RFP signal change, %; measured here: RFP expression control read;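 0 = vehicle wells; hits needed this value within 50% of zero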
Active calls of the source: *; i = inactive; ? = inconclusive; / = not tested or not shown.

SMILES	eIF4H FP inh	CSC inhib	HIV Env fusion	Rce1 inh	PABP polyA inh	MT1-MMP act inh	MT1-MMP act inh RFP	UUG fidelity	others
CC(C)(C)OC(=O)[C@H](Cc1ccccc1)NC(=O)c1nc[nH]c1C(=O)N[C@@H](Cc1ccccc1)C(=O)OC(C)(C)C	9	-4	74*	i	3	-17	-20	-7
O=C(NN1C(=O)c2ccccc2C1=O)C1CCCCC1	-16	8	/	i	2	-4	-4	-24
O=C(NCCN1CCOCC1)C1CC(=O)N(c2cccc(C(F)(F)F)c2)C1 (stereo not drawn)	/	/	-5	/	/	3	-1	-16
COc1cc(OC)cc(C(=O)N(CCCN2C(=O)c3cccc4cccc(c34)C2=O)c2cccc(OC)c2)c1	2	17	35	i	-5	-2	-7	/
O=C(Cn1nc(-c2ccccc2)oc1=O)OCC(=O)c1ccc(F)c(F)c1	/	/	-9	/	/	6	2	-19
COc1ccccc1C(=O)NCc1ccc(-c2nc3ccccc3s2)cc1	3	19	6	i	-1	-1	0	/
CCCOc1cccc(C(=O)N/N=C/c2ccoc2)c1	2	-7	24	i	-2	-1	3	-24
O=C(Nc1nc(-c2ccc(S(=O)(=O)N3CCCCCC3)cc2)cs1)c1ccccc1	-4	9	52	i	0	-3	-13	-8
CCN(c1ccccc1)S(=O)(=O)c1ccc(Cl)c(C(=O)N(CC2CCCO2)C2CCS(=O)(=O)C2)c1 (stereo not drawn)	-7	1	6	i	-17	-1	1	/
COc1ccc(NC(=O)Cc2cccs2)c(OC)c1	2	-3	-62	i	4	-2	-5	6
CC(=O)c1ccc(-c2cnc3c(NC=O)cc(-c4ccc(C(=O)N5CCOCC5)cc4)cn23)cc1	/	/	?	/	/	-12	-1	-3
COc1ccccc1N(C(=O)c1snc(C(N)=O)c1N)C(C(=O)NC1CCCC1)c1ccc(N(C)C)cc1 (stereo not drawn)	-15	-2	37	i	-3	-4	-3	3
CC(=O)c1cccc(NC(=O)c2ccc3ccccc3c2)c1	5	1	-183	i	6	3	1	-23
Cc1c(C(=O)Nc2cccc(N(C)S(C)(=O)=O)c2)cccc1[N+](=O)[O-]	1	-12	13	i	2	0	-1	/
C=CCN=C1CC(C)(C)CC(=O)/C1=C(/O)CCC(=O)OC	9	-12	13	i	-5	-1	-2	-6
COCCCNC(=O)c1ccc2c(c1)nc(C)n2-c1cccc(C)c1	-12	-16	0	i	0	1	-2	1
O=C(CSc1nnc2ccccn12)NC(=O)c1ccccc1Cl	/	-19	-11	/	/	1	3	-15
COc1ccc(C(=O)c2sc(Nc3ccc(NC(C)=O)cc3)nc2C)cc1	-1	-2	7	i	4	2	-5	-8
CC(C)(C)C(=O)Nc1cc2c3c(c1)CCC(=O)N3CCC2	-3	6	1	i	1	-1	2	-4
NS(=O)(=O)c1ccc(CCNC(=O)c2ccc3nc4ccc(Cl)cc4c(=O)n3c2)cc1	-10	-6	-17	i	5	4	-4	/
Cc1ccc(N2C(=O)CC(NCC3CCCO3)C2=O)cc1 (stereo not drawn)	-2	-2	30	i	0	0	1	/
CCCCCCn1c(SCCN2CCOCC2)nc2c1c(=O)[nH]c(=O)n2C	6	-12	-49	i	6	4	5	-15
C=CCn1c(=N)c(C#N)cc2c(=O)n3ccccc3nc21	2	-14	/	i	-8	6	2	/
Oc1ccccc1-c1cncn1Cc1ccccc1	1	-17	6	i	-6	-2	1	-6
Cc1ccc(-c2csc(/C(C#N)=C/Nc3ccc4c(c3)OCCO4)n2)cc1	-2	4	5	i	-2	-4	-4	14

The list goes on, starting with the last 4 of the part before.
SMILES	eIF4H FP inh	CSC inhib	HIV Env fusion	Rce1 inh	PABP polyA inh	MT1-MMP act inh	MT1-MMP act inh RFP	UUG fidelity	others
CCCCCCn1c(SCCN2CCOCC2)nc2c1c(=O)[nH]c(=O)n2C	6	-12	-49	i	6	4	5	-15
C=CCn1c(=N)c(C#N)cc2c(=O)n3ccccc3nc21	2	-14	/	i	-8	6	2	/
Oc1ccccc1-c1cncn1Cc1ccccc1	1	-17	6	i	-6	-2	1	-6
Cc1ccc(-c2csc(/C(C#N)=C/Nc3ccc4c(c3)OCCO4)n2)cc1	-2	4	5	i	-2	-4	-4	14
CCCNC(=O)C1(C)CCCN(C(=O)Cc2cccc(OC)c2)C1 (stereo not drawn)	/	/	-12	/	/	-1	5	15
CCCN(CC1CC1)C(=O)CSc1nnc(-c2ccco2)n1N	10	-7	/	i	10	/	/	/
CCOC(=O)c1c(NC(=S)NC(=O)c2cnn(CC)c2)sc2c1CCC(C)C2 (stereo not drawn)	2	-2	-106	i	1	13	-1	-13
Cc1cccnc1NC(=S)NCc1ccco1	2	-5	-16	i	-22	2	3	-32
Cc1nn(C)c(C)c1S(=O)(=O)NCCc1ccc(Cl)cc1	-2	-1	1	i	2	6	5	-18
O=C(Nc1ccc2c(c1)C(=O)OC2)Nc1cccc2ccccc12	-5	6	16	i	11	5	2	/
COCCC(=O)N1CCCC(N2CCN(c3ccc(F)cc3)CC2)C1 (stereo not drawn)	-1	-19	10	i	-1	2	1	-13
Cc1nn(-c2ccccc2)nc1C(=O)Nc1ccc2[nH]ncc2c1	1	9	15	i	9	-1	-8	-29
CCCc1cc(C(=O)NCc2ccco2)no1	14	-9	/	i	11	4	6	-7
CC(=O)NNc1[nH]c2c(c(=O)c1[N+](=O)[O-])c(=O)n(C)c(=O)n2C	2	5	5	i	8	2	5	-16
O=C(CNCc1ccccc1)Nc1ccc(Oc2ccccc2)cc1	-13	8	-3	i	-8	0	-1	/
O=C(C1CCN(S(=O)(=O)c2ccccc2)CC1)N1CCN(Cc2ccc3c(c2)OCO3)CC1	-8	-5	-4	i	-7	1	-8	1
O=c1[nH]c(N2CCN(Cc3ccccc3)CC2)nc2c1CCC2	2	-7	-2	i	0	-2	-1	/
CC(=O)Nc1ccc(C(=O)OCC(=O)c2ccc(S(=O)(=O)N3CCCCC3)cc2)cc1	/	1	-1	i	/	-3	0	/
CCC(C)C(=O)Nc1nnc(SCC(=O)Nc2ccccc2F)s1 (stereo not drawn)	-7	-9	13	i	-5	2	0	/
FC(F)(F)c1cc(NCc2cccs2)n2ncnc2n1	-4	2	/	i	-4	0	-1	-12
O=C(CCn1c(=O)oc2ccccc21)NCc1cccs1	-4	-5	?	i	-5	0	0	-25
COC(=O)[C@@H](NC(=O)Nc1ccc2c(c1)OCCO2)C(C)C	-2	-6	/	i	-3	1	-1	-21
CCS(=O)CCSc1nc2ccccc2s1 (stereo not drawn)	-4	-6	3	i	0	3	7	-7
CNC(=O)c1sccc1S(=O)(=O)Cc1c(Cl)cccc1Cl	-7	-19	/	i	-3	1	8	/
O=C(Nc1cccc(-n2cnnn2)c1)c1ccccc1Br	-8	8	-3	i	4	2	4	-4
COc1cc(OC)cc(-c2n[nH]c(=S)n2-c2ccc3c(c2)OCO3)c1	0	3	-27	i	19	3	3	/
Cc1ccccc1CN1C(=O)c2ccccc2Sc2ccc(C(=O)NCCN3CCOCC3)cc21	-8	28	-9	i	-5	-13	-4	10
CCCCC/C=C/C1=CC(=O)C[C@H](c2ccc(Cl)cc2)C1	/	36	5	/	/	3	7	-6
CSc1nn(CCc2ccncc2)c(=S)s1	-4	-3	/	i	2	1	1	-26

6 records picked at random from the list so far:
SMILES	eIF4H FP inh	CSC inhib	HIV Env fusion	Rce1 inh	PABP polyA inh	MT1-MMP act inh	MT1-MMP act inh RFP	UUG fidelity	others
O=C(C1CCN(S(=O)(=O)c2ccccc2)CC1)N1CCN(Cc2ccc3c(c2)OCO3)CC1	-8	-5	-4	i	-7	1	-8	1
COCCCNC(=O)c1ccc2c(c1)nc(C)n2-c1cccc(C)c1	-12	-16	0	i	0	1	-2	1
Cc1cccnc1NC(=S)NCc1ccco1	2	-5	-16	i	-22	2	3	-32
Oc1ccccc1-c1cncn1Cc1ccccc1	1	-17	6	i	-6	-2	1	-6
CC(=O)Nc1ccc(C(=O)OCC(=O)c2ccc(S(=O)(=O)N3CCCCC3)cc2)cc1	/	1	-1	i	/	-3	0	/
O=C(CCn1c(=O)oc2ccccc21)NCc1cccs1	-4	-5	?	i	-5	0	0	-25

(further entries)
SMILES	eIF4H FP inh	CSC inhib	HIV Env fusion	Rce1 inh	PABP polyA inh	MT1-MMP act inh	MT1-MMP act inh RFP	UUG fidelity	others
Cc1cc(C(=O)CN2C(=O)NC3(CCCCCC3)C2=O)c(C)n1C	/	/	-13	/	/	2	4	-8
CC(C)CN(/C=N/c1sc2c(c1C#N)CCCCC2)CC(C)C	-2	-13	19	i	4	-24	-6	-5
O=C(/C=C/Nc1ccccc1)c1ccc(Oc2ncccn2)cc1	1	-6	/	i	3	-3	2	/
O=C(O)/C=C/c1ccc(-c2cccc(C(F)(F)F)c2)o1	61	-5	1	i	-1	-3	3	/	eIF4H FP inh retest=-8;PABP polyA inh retest=5
O=C(Nc1ccccc1)P(=O)(O)c1ccccc1	/	/	?	/	/	3	3	-7
COc1cccc(C(=O)NCc2ccc3c(c2)OCO3)c1	-2	-5	0	i	1	0	1	-11
Cc1csc2nc(CNS(=O)(=O)c3ccc(-c4ccccc4)cc3)cn12	4	-3	-14	i	4	-1	-14	-3
Cc1c(C)n(Cc2ccccc2)c2ccc(C(=O)O)cc12	/	1	-2	i	/	-3	0	-9
CC1(C)C(=O)C2(CCCCC2)C(=O)OC1c1cccn1-c1ccc([N+](=O)[O-])cc1 (stereo not drawn)	-6	14	72*	i	2	2	0	/
O=C(C1CCN(S(=O)(=O)c2ccc3ccccc3c2)CC1)N1CCN(c2ncccn2)CC1	-3	0	23	/	-2	5	-4	2
CCn1c(C)c2c([n+]1CC)CC(C)(C)CC2=O	4	-6	/	i	36	0	7	-8
COc1ccccc1-c1cn[nH]c1-c1ccc(O)cc1O	-2	-15	-11	i	10	-2	-16	-12
CCOCCn1ccc2c(OCC(=O)Nc3ccccc3OC)cccc2c1=O	/	-15	-5	i	/	8	-4	-4

Some of the compounds tested; count on the stated rates, not on these rows.
